# D2 PAM: potentiates the human D2 dopamine receptor allosterically; AID 624464; DiscoveRx D2 beta-arrestin cells, luminescence, 90 min; 100% = 57 uM dopamine signal; potentiation, % (no concentration beside the values); 360,000 compounds, 0.23% hits; active = potentiation of 50% or more; inconclusive = 30% to 50%; inactive = 30% or less;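 also: compound concentration not given in the record; tested on top of an EC20 dose of dopamine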
# Target sequence (P14416 whole entry, looked up): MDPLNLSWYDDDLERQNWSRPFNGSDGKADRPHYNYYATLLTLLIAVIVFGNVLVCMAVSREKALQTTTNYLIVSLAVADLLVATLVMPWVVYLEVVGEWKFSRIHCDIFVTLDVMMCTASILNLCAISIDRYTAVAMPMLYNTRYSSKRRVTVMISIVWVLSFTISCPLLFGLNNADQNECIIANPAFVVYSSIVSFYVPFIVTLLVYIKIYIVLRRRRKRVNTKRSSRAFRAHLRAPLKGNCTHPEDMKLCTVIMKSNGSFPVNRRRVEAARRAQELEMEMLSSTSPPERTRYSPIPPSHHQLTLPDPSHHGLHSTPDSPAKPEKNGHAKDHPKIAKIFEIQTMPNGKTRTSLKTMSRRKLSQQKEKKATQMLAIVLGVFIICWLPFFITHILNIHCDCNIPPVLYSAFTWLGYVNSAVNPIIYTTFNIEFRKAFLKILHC
#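 PathHunter beta-arrestin assay in DiscoveRx D2 cells. Compounds were added with an EC20 of dopamine (50 nM final) for 90 min at 37 deg C. Luminescence was read 1 h after detection reagent, with 57 uM dopamine as the EC100 control.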
# Menin MLL FP FL: displaces fluorescein MLL peptide from human menin. Fluorescence polarization, fluorescein-MLL peptide displacement from menin. FP activity change, % at 61.4 µM. 290,000 tested, under 10 active. AID 1766; inconclusive = falling polarisation curve, or a change in total fluorescence; inactive = total fluorescence flat and polarisation flat or rising; no compound was filed as active; the % refers to the polarisation; negative = inhibition;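 also: % of control where 0% means no effect; inhibitors lower the polarisation; unlabelled MLL peptide was the positive control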
# Sfp inh: blocks B. subtilis Sfp PPTase activity | Potency, µM, inactives show max response, negative = inhibition, hits mostly inhibitors | 310,000 compounds, 3.5% hits | AID 1490 | Q9F4F7 | Biochemical Sfp PPTase activity, qHTS; active = well fitted inhibition curve with a large enough effect; inconclusive = small, poorly fitted or top-dose-only effect, or another doubt; inactive = no such curve, though single readings can be large or run the other way;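 also: the enzyme is Sfp with the accession as filed and its product quenches rhodamine fluorescence; potency is read from the fitted curve at half-maximal effect; 0% = enzyme reaction without inhibitor and -100% = no enzyme wells; top concentration of the series not given in the record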
#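 After 15 min at room temperature with compound, 15 nM Sfp received 5 uM rhodamine-CoA plus 12.5 uM BHQ-2-ybbR (50 mM Hepes pH 7.6, 10 mM MgCl2). Rate came from the fluorescence difference over 30 min, ex 525/em 598 nm.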
# ClpP mod: qHTS Assay for Activators of ClpP; AID 651965, 2013; purified B. subtilis ClpP, FRET peptide cleavage, 20 min; 340,000 compounds, 1.9% hits; Potency, µM (titrated, usually from 57.5 µM), without a hit: at the highest dose activity change, negative = active; active = well fitted falling curve with a large enough effect; inconclusive = small, poorly fitted or top-dose-only effect; inactive = no such curve, though single readings can be large or run the other way; also: potency is read from the fitted curve at half-maximal effect; the source files actives as falling curves though it sought activators and does not explain the sign; nearly all actives have a fitted effect of over 65% in size; many hits overshoot -100%
# Target sequence (P80244 whole entry, looked up): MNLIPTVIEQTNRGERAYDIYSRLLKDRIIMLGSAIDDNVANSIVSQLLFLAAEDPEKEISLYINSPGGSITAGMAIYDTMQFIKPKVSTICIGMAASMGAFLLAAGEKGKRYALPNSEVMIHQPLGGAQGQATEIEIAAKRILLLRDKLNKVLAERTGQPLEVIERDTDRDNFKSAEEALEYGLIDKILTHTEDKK
#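 FRET quenching reversal measured ClpP activation: 10 microg/mL B. subtilis ClpP at pH 8 with the FRET-FV decapeptide, read at 430 nm after 320 nm excitation. The 20-min minus 0-min signal was scaled between DMSO/no-enzyme wells and ADEP (5.8 microM final).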
# TRPV1 PAM: human TRPV1 potentiation; Q8NER1; TRPV1-expressing cells, Fluo-8 calcium influx, capsaicin EC20 potentiation; host cell line not named in the record; control for the full effect not named in the record; potentiation, % at 8.33 µM; 320,000 compounds, 0.02% hits; AID 540277; active means potentiation above 80%; inconclusive means 30% to 80%; inactive means below 30%; also: 0% is about no effect
#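 TRPV1-expressing cells were cultured overnight at 35.5C and loaded with Fluo-8 calcium dye for 40 to 90 min at room temperature. After a 10 s baseline, compound was added and calcium influx was read kinetically for 3 min (ex 480/em 520 nm).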
# gsp antag: gsp mutant antagonism; gsp-mutant cells, cAMP HTRF, 30 min; control for the full effect not named in the record; Potency, µM (top dose mostly 76.9 µM), for the others: at the highest dose activity change, negative = inhibition, most hits filed as inhibitors; 340,000 compounds, 0.4% hits; active = falling curve of any shape with a large fitted effect; inconclusive = falling curve, mostly with a smaller effect; inactive = flat or rising curve; cell line not stated here;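 also: intracellular cAMP measured with PDE inhibitor Ro 20-1724 present during compound exposure; potency is read from the fitted curve at half-maximal effect; % is scaled to controls: 0 for no effect and ±100 for the full control effect; nearly all actives have a fitted effect of over 65% in size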
#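 Cells in G418 medium, seeded 16-24 h, 37C; buffer exchange to DPBS + 1 mM CaCl2, 0.5 mM MgCl2, 0.05% BSA; cpds in DMSO + […] (300 uM stock), 30 min 37C; HTRF cAMP detection.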
# gsp ag: agonists of gsp mutant (McCune-Albright syndrome); gsp mutant cells, cAMP HTRF, 30 min; control for the full effect not named in the record; Potency, µM (top dose mostly 76.9 µM), inactives show top-dose activation (cAMP increase), usual class: activators; AID 624287; 340,000 compounds, 0.13% hits; active = well fitted activation curve with a large enough effect; inconclusive = small, poorly fitted or top-dose-only effect, or another doubt; inactive = no such curve, though single readings can be large or run the other way; cell line not stated here;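 also: phosphodiesterase inhibitor Ro 20-1724 added with compounds to block cAMP breakdown; potency is read from the fitted curve at half-maximal effect; nearly all actives have a fitted effect of over 60% in size; about a fifth of the inactives were tested at one dose only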
#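 Cells stably selected in G418 were plated at 2000/well, grown 16-24 hr, then given compounds in DMSO with the PDE inhibitor […] (300 uM solution added) for 30 min at 37C; cAMP was read by HTRF.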
# Active calls of the source: *; ? = inconclusive; . = no result given; & = joins results of further samples; [ ] = another dose, or the depositor's remark.
Structure	D2 PAM	Menin MLL FP FL	Sfp inh	ClpP mod	TRPV1 PAM	gsp antag	gsp ag
Cc1ccc(-c2nc(CS(=O)CC(=O)NCc3ccc(F)cc3)c(C)o2)cc1 (stereo unspecified)	-10.9	.	6.6%	-6.2%	21.4	5.5%	?
CCOc1ccc2nc(C)cc(Nc3ccc(N4CCOCC4)cc3)c2c1	.	1.3	0.8%	.	14.7	.	.
CCOC(=O)c1cnc(SC2CC(=O)N(c3cccc(OC)c3)C2=O)nc1N (stereo unspecified)	2.1	3.5	-4.8%	-4.0%	-3.3	-12.9%	19.4%
O=C(NC1CCS(=O)(=O)C1)c1cnccn1 (stereo unspecified)	-4.9	-0.3	12.6%	2.1%	-4.8	9.7%	?
O=C(Oc1coc(CSc2ncccn2)cc1=O)c1cccc([N+](=O)[O-])c1	2.2	-2.3	-0.9%	.	3.3	3.2%	?
CCN(CC)C(=S)SCC(=O)Nc1ccc(F)cc1	-6.2	-1.0	7.8%	0.1%	-27.2	15.0%	-2.2%
CCOc1ccc(NC(=O)COC(=O)C23CC4CC(CC(C4)C2)C3)c([N+](=O)[O-])c1	-9.5	-0.5	8.6%	-4.7%	0.5	0.4%	2.9%
Cc1ccc(-c2nc3ccccn3c2NC(=O)c2ccco2)cc1	-1.5	0.3	7.6%	-2.1%	?	-4.3%	-10.8%
COc1ccc(-c2ccc(CN3C(C)C(=O)N(Cc4cn(CCC5OCCO5)nn4)CCS3(=O)=O)cc2)cc1OC (stereo unspecified)	3.0	.	.	-11.2%	.	.	-41.5%[inhibitor]
Cc1ccsc1/C=N/Nc1ncnc2nc[nH]c12	16.0	2.2	50.1µM*	-0.8%	8.4	-3.7%	30.3%
c1coc(-c2nc3c4c5c(sc4ncn3n2)CCCC5)c1	-15.7	55.8[activator]	7.0%	-13.9%	-15.4	6.6%	4.7%
CC(/C=C/c1ccccc1F)=N\NC(=O)c1ccc(Cl)cc1	-10.8	7.0	-10.7%	.	-15.7	-7.9%	1.1%[15.4 µM]
N#C/C=C\Oc1ccc(Cl)cc1N	?	2.4	-14.1%	-1.0%	5.2	2.5%	6.9%
CN(CCc1ccccn1)C1CCCN(S(=O)(=O)c2ccc(F)c(Cl)c2)C1 (stereo unspecified)	-12.5	.	-3.7%	-1.7%	-0.7	5.9%	-29.2%
O=C(CN1C(=O)NC2(CCCCCC2)C1=O)c1ccc(Cl)s1	2.5	.	.	.	-11.1	7.4%	-0.5%[15.4 µM]
O=C(OCc1c(F)cccc1Cl)c1cc([N+](=O)[O-])ccc1N1CCOCC1	-6.5	.	.	.	3.3	-8.3%	-5.0%[15.4 µM]
CN(C(=O)c1nn(C)c2c1CS(=O)(=O)c1ccccc1-2)c1cccc(Cl)c1	1.2	.	10.7%	1.5%&-1.4%	-11.1	-1.8%	27.6%
CCOC(=O)N1CCN(C(=O)C(NC(=O)C2CCC(C)CC2)C(C)C)CC1 (stereo unspecified)	-4.5	0.2	10.2%	0.0%	-9.3	3.8%	?
CCOc1ccccc1Nc1nc2ccc(C)cc2n2cnnc12	5.2	-2.6	-11.7%	-0.9%	-9.0	-9.8%	-2.6%
O=C(NCc1n[nH]c(=S)n1-c1cccc(C(F)(F)F)c1)c1ccc(S(=O)(=O)N2CCCCC2)cc1	-6.8	-2.5	?	.	-0.3	16.3%	-6.6%[15.4 µM]
CSc1ccccc1NC(=O)CN(c1cc(C)cc(C)c1)S(C)(=O)=O	12.4	1.3	-5.1%	-4.3%	-27.0	?	-10.0%
O=C(Cc1ccc([N+](=O)[O-])cc1)Nc1cccnc1	-7.0	0.8	15.1%	-0.1%	1.3	7.9%	-23.0%
COc1ccccc1N=Nc1c(C)[nH][nH]c1=O	-9.0	-4.2	-18.8%	-1.4%	-19.2	3.4%	17.1%[15.4 µM]
O=C1CSc2ccc(S(=O)(=O)N3CCN(c4ccccc4)CC3)cc2N1	-8.1	.	4.4%	0.9%	-17.1	-5.7%	-15.4%
O=C(Nc1ccc2nc(-c3ccccc3)[nH]c2c1)c1cccs1	-21.5	1.1	5.7%	-0.8%	5.9	-12.3%	-28.4%
COc1cccc(NC(=O)CN(C)C(=O)c2cc(-c3ccc(F)cc3)nc3ccccc23)c1	-11.5	.	.	?	-0.4	39.8µM*	-18.4%
CCOC(=O)C(NC(C)=O)C(=O)O (stereo unspecified)	1.0	-3.2	9.9%	-0.4%	1.8	0.5%	?
Cc1nc2cc(C)c(C)cc2o1	-1.0	.	.	.	.	8.3%	?
O=C(NNC1=Nc2ccccc2SC1)c1ccccc1F	-15.6	3.1	4.7%	.	-17.2	-6.3%	-13.6%[15.4 µM]
CC(C)N1CCC(N2CCN(C3CCCC3)CC2CCO)CC1 (stereo unspecified)	-8.0	-2.6	3.9%	.	-1.0	14.4%	0.0%[15.4 µM]
CN(C)c1cccc(C(=O)n2cc(C(=O)c3cc(F)ccc3O)cn2)c1	-4.5	4.1	4.5%	47.9%	-7.7	1.9%	-52.2%[inhibitor]
O=S(=O)(c1ccc(Cl)cc1)N1CCN(Cc2c[nH]c3ccccc23)CC1	-0.7	1.1	10.0%	2.1%	12.5	8.4%	13.8%
CCOC(=O)c1sc(C)c2c(=O)n(CCc3ccccc3)nnc12	-8.0	2.0	-4.7%	0.3%	13.2	-3.6%	3.8%
CN(C)CC/C=C1\c2ccc(F)cc2Sc2cc(F)c(Cl)cc21	-11.3	.	.	-0.7%	.	5.4%	0.4%
Cc1ccc(-n2nc3c(c2NC(=O)c2ccco2)CS(=O)(=O)C3)cc1	-1.4	-0.3	11.2%	1.2%	-0.5	-11.8%	17.2%
Cc1cc(=O)n(Cc2ccco2)c(=S)[nH]1	-6.2	.	.	0.5%	.	.	-5.3%
C=CCOc1ccc(C2/C(=C(\O)c3ccc4c(c3)CC(C)O4)C(=O)C(=O)N2CCN2CCOCC2)cc1OCC (stereo unspecified)	-13.7	2.9	-9.5%	-0.8%	10.6	11.9%	39.4%
COc1cc(-c2cc(C(=O)Nc3cc(S(=O)(=O)N4CCOCC4)ccc3O)c3ccccc3n2)cc(OC)c1OC	-19.3	.	.	-0.5%	.	-12.3%	8.2%[15.4 µM]
CN(C)c1ccc(C=NNC(=S)Nc2ccc(F)cc2)cc1	-7.1	.	.	.	.	-18.3%	7.9%
Cc1ccc(C=NNc2ccc([N+](=O)[O-])cn2)cc1	-25.5	.	.	-2.4%	.	-15.4%	-5.5%
O=C(OCC(=O)N1CCc2ccccc21)c1ccccc1	-27.6	0.3	1.8%	1.0%	8.1	6.5%	-13.1%
COC(=O)CC1C(=O)NCCN1C(=O)c1ccc(Cl)cc1 (stereo unspecified)	-2.2	-3.3	-16.0%	.	-5.5	3.4%	12.1%
CCN(CC)CCCN1C(=O)C(=O)/C(=C(/O)c2c(C)nc3ccccn23)C1c1ccc(C)o1 (stereo unspecified)	-6.1	.	.	-0.6%	.	8.4%	-15.7%
CC(C)(C)C(=O)Nc1cccc(-c2cc(-c3c(Cl)cccc3Cl)no2)c1	-1.7	?	18.8%	.	-2.5	2.5%	-3.4%[15.4 µM]
Fc1ccc2nc(N3CCOCC3)sc2c1	1.0	3.0	3.5%	.	8.1	3.0%	-19.9%[15.4 µM]
COc1ccccc1OCC(=O)NCC1CCCN(C(=O)c2ccccc2SC)C1 (stereo unspecified)	1.1	0.8	10.5%	0.0%	4.9	1.8%	1.2%
COc1ccc(C(=O)N/N=C(/C)c2ccc(N3CCCCC3)cc2)cc1	-8.7	1.1	-2.2%	0.8%	-15.9	-2.5%	-10.7%[15.4 µM]
O=C(CN1CCCC1)Nc1ccc(NC(=O)Nc2ccccc2Cl)cc1	-22.9	-4.2	7.4%	1.9%	7.6	5.9%	22.4%
COc1ccc2[nH]c3c(=O)n(CCc4ccccc4)cnc3c2c1	-2.2	0.3	0.5%	4.0%	15.4	-6.9%	11.1%
COc1ccc(N2CCCC2)c(NC(=O)c2ccc(Br)o2)c1	6.3	0.1	-11.2%	.	12.3	?	6.5%[15.4 µM]
CCCCCCCCCCCCOC(=O)C[N+](C)(C)C	-3.2	5.7	-26.3%	.	-3.6	10.4%	18.1%[15.4 µM]
O=C(Nc1ccc(Cl)cc1)NC1CCCc2ccccc21 (stereo unspecified)	11.5	1.3	4.2%	-2.7%	-9.7	-2.0%	4.2%
Clc1cccc(Cl)c1-c1noc(-c2ccno2)n1	-1.6	4.7	0.8%	-1.1%	0.3	-5.0%	19.2%
Cc1ccccc1NC(=O)CSc1nnc(Cc2ccccc2)c(=O)n1N	16.5	.	.	-1.3%	?	7.8%	-33.7%
Cc1ccc(S(=O)(=O)N2CCCCC2)cc1NC(=O)Cn1c(=O)cnc2ccccc21	-10.4	4.6	18.8%	.	2.5	-13.2%	12.9%[15.4 µM]
COc1cccc(C(=O)Nc2ccccc2-c2ccccc2)c1	-10.8	.	.	-7.5%	-15.6	-8.1%	-20.1%
c1cnc(N2CCN(c3cnccn3)CC2)nc1	-5.2	-1.1	-0.3%	.	3.9	6.7%	4.1%[15.4 µM]
O=C1CCC2(CC1)NC(=O)N(c1ccccc1)N2	-4.1	-1.6	10.4%	.	0.4	8.8%	-11.7%[15.4 µM]
CCN(CC(=O)Nc1c(F)cccc1F)C(=O)c1cc2c(cc1Cl)N1CCCCCC1=NS2(=O)=O	4.0	.	.	0.8%	24.0	15.6%	1.8%
Cc1ccc(C)c(Cn2nnc3c(=O)[nH]c(C4CCCN(C(=O)C5CCCCC5)C4)nc32)c1 (stereo unspecified)	8.4	6.5	50.1µM*	1.5%	17.6	-20.8%	-22.2%
CCCN(CC(=O)Nc1ccccc1C)C(=O)c1ccc(=O)n(Cc2ccccc2)n1	-6.1	.	.	-0.1%	2.2	-1.9%	-58.3%[inhibitor]
CC(=O)Nc1ccc(OC(=O)c2cccs2)cc1	0.8	-1.7	-6.6%	-0.7%	1.0	0.2%	-24.3%
c1coc(CNc2c3c(nc4ccccc24)CCC3)c1	-5.7	?	-9.2%	-16.7%	-2.6	-6.9%	2.9%

# From PubChem
